# Assay outcomes as filed in PubChem BioAssay.
# PrP 5UTR inh – suppresses PrP 5' UTR mRNA reporter expression | actives 0.35% (n = 340,000) | inhibition, % (no concentration beside the values) | cell-based PrP 5' UTR mRNA reporter, plate reader;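 active = every replicate at 50% or more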;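 also: 0 = median of the neutral control wells; tested in H4 reporter cells; numbers are from one replicate; inactives centre near -14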
# BJeLR lethal – BJeLR cell viability loss; BJeLR (HRASV12) viability, CellTiter-Glo ATP luminescence, 48 h; reference of the scale not given here; inhibition, % (test concentration not listed); actives 0.17% (n = 300,000);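 active = replicate mean above 50%; inconclusive = above 50% but judged a plate artefact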;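 also: 50 nL library stock added to about 25 µL; numbers are from one replicate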
# Mtb hypoxia inh – reduces hypoxia-regulated biosensor signal in M. tuberculosis | M. tuberculosis hypoxia-regulated fluorescent reporter, fluorescence | fluorescence inhibition, % (concentration not given with the values) | actives 0.1% (n = 300,000) | AID 1159583;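 active = 35 to 45% if threefold the growth effect, above 45% if 1.5-fold the growth effect; inactive = the rest, general growth blockers included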;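 also: wells of about 50 µL received 100 nL stock; 0% = vehicle wells and 100% = reference inhibitor wells; whole bacteria with a GFP reporter of the hypoxia response; strong numbers were not always called active; many hits fall short of the cut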
# RN4220 kill – kills Staphylococcus aureus RN4220 | S. aureus RN4220 growth, OD600, 16 h | inhibition, % (no concentration beside the values) | actives 0.33% (n = 330,000) | AID 1259311;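 active = z-score of -3 or lower and OD600 up to 0.18 on both plates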;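 also: plate controls were untreated cells for no effect and reference antibiotic for full effect; stock transfer was 100 nL into about 80 µL; one replicate is shown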
# Autofluor counter – flagged as autofluorescent in microsphere protease counterscreen | compound autofluorescence counterscreen, microsphere flow cytometry; hits give high values | AID 624483 | actives 3.1% (n = 360,000) | fluorescence intensity (concentration not given with the values);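 active = at least 3 SD above the mean of all compounds, about 16000 in these data; inconclusive = too few beads counted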;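 also: 100 nL of 1 mM stock went into each well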
# ugtP null kill – kills S. aureus RN4220 lacking UgtP; S. aureus RN4220 ugtP deletion, OD600 growth, 16 h; some inactives read as strong as hits; growth inhibition, % (concentration not given with the values); actives 0.54% (n = 330,000);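 active = z-score under -3 and OD600 up to 0.15 on both plates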;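 also: plate controls were untreated wells for no effect and antibiotic for full effect; wells of about 80 µL received 100 nL stock; the first replicate is given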
# Mtb hypoxia inh growth – second read-out of Mtb hypoxia inh, no call of its own (marks repeat the call); growth inhibition, %; measured here: M. tuberculosis growth (absorbance);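 0% = vehicle and 100% = reference antibiotic; read after six days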
# * hit, by the source's call; ? = inconclusive; / = no result given.
SMILES,PrP 5UTR inh,BJeLR lethal,Mtb hypoxia inh,Mtb hypoxia inh growth,RN4220 kill,Autofluor counter,ugtP null kill
CCOC(=O)CC1=C(C#N)C(c2cccnc2)C(C(=O)OCC)=C(N)O1 (centres undefined),-10.8,-2.0,/,/,3.4,2730,-0.2
COc1ccc(CCC(=O)Nc2cc3c4c(c2)CCC(=O)N4CCC3)cc1,-33.9,4.1,-2.7,3.4,2.9,4956,5.3
CCN(CC)CCN1C(=O)C(=O)/C(=C(/O)c2ccc3c(c2)CC(C)O3)C1c1ccc(OC)cc1 (centres undefined),-27.9,-12.9,2.2,5.0,5.4,6212,5.3
COc1cc(/C=N/Nc2nncn2N)ccc1OCc1c(C)no[n+]1[O-],-2.6,-8.6,/,/,/,4384,/
CCc1c(C)nc(N2CCN(Cc3ccc4c(c3)OCO4)CC2)[nH]c1=O,-15.7,-4.2,-3.5,0.8,0.0,3111,9.8
Cc1ccc2cn[nH]c2c1N,-13.7,-4.5,3.5,8.8,2.8,1753,-0.7
O=C(NCCCN1CCOCC1)c1cccc(S(=O)(=O)Nc2ccc(F)cc2)c1,-26.9,/,5.5,-22.9,1.7,3971,-1.3
FC(F)(F)c1nnc2ccc(Cl)nn12,-8.8,/,/,/,4.7,3878,10.9
CCCN1C(=O)C(Cc2nc3ccccc3c(=O)n2-c2ccccc2)c2cc(C)ccc21 (centres undefined),-15.3,-6.6,-1.9,5.6,-1.3,2083,-4.3
CC1CC(C)CN(C(=O)c2cccc(S(=O)(=O)NCc3ccccc3)c2)C1 (centres undefined),-8.4,/,8.5,4.4,5.9,5581,2.2
CCCCOc1cccc(C(=O)N(Cc2cccs2)C2CCS(=O)(=O)C2)c1 (centres undefined),-3.9,9.5,2.5,4.6,0.9,4525,2.3
COc1ccccc1/C=N\Nc1cn[nH]c(=O)c1Cl,-10.1,1.2,/,/,/,2602,/
O=C(NC1CCCCC1)c1cc(C2CC2)nn1-c1ccccc1,-24.3,/,17.3,11.8,6.0,3603,3.2
CCn1c(CNc2ccc(F)cc2)nnc1SCC(=O)OC1CCCCC1,-25.8,0.7,7.8,1.3,4.9,10357,-2.7
O=c1[nH]c(C2C3CC4CC(C3)CC2C4)nc2ccccc12 (centres undefined),-18.0,-2.5,-12.1,-3.1,1.0,2306,-10.3
Cc1ccc(CNC(=O)Cn2cc(C(F)(F)F)ccc2=O)cc1,-34.1,4.1,2.3,6.5,5.2,7025,10.3
O=C(CCN1C(=O)C2CCCCC2C1=O)Nc1cc(F)ccc1F (centres undefined),17.2,1.6,-0.2,2.0,4.1,4661,9.8
N#C/C(=C\c1ccc(OCC(N)=O)cc1)C(=O)NC1CC1,-18.1,1.8,13.1,6.3,4.9,4702,4.3
CC(C)c1ccc(C(=O)N(c2ccccn2)C(C)c2ccco2)cc1 (centres undefined),-47.0,-0.4,13.1,7.6,6.2,7408,5.1
Cc1cccc2c(N)c3c(nc12)N(C)CC3,-15.2,0.3,/,/,/,4884,/
CCN(CC)CCCNC1CCS(=O)(=O)C1 (centres undefined),-2.5,-5.5,8.2,20.3,2.5,5948,-1.2
Cc1ccc(-n2ncc3c(=O)n(CC(=O)N4CCN(c5ccccc5)CC4)cnc32)cc1C,-8.7,-5.5,10.4,-0.3,21.2,4303,-58.6
C/C(=N\N=C1\NC(=O)CC(C(=O)O)S1)c1cccs1 (centres undefined),-5.4,16.9,/,/,/,8124,/
Cn1ncc([N+](=O)[O-])c1C(=O)n1nnc2ccccc21,-23.6,/,4.8,0.5,5.5,3853,2.2
NC(=O)NOCc1ccccc1F,-14.0,-2.4,-1.0,-2.8,3.3,3353,4.0
Clc1ccc(OCc2nn[nH]n2)cc1,-11.0,-3.9,10.5,-1.0,8.3,3220,-3.7
O=C(COC(=O)c1ccco1)Nc1ccc2c(c1)OCO2,-22.7,5.7,15.3,16.4,-14.5,2932,-9.2
COc1ccc(N2C(=O)CCC2(C#N)c2ccc(OC)cc2)cc1 (centres undefined),-18.0,-13.8,-0.2,9.4,-2.3,5145,-5.9
CC(=O)Nc1ccc(Oc2ncccn2)c(Cl)c1,6.6,-2.0,/,/,15.6,2989,3.9
Cc1cc(N/N=C/c2ccccc2Br)nc2ccccc12,-13.4,-14.6,/,/,/,2566,/
Cc1ccc(C(=O)CN(Cc2ccccc2)C2=NCCS2)cc1,-24.4,1.6,4.4,-5.8,1.6,10093,17.0
O=C(NN=Cc1ccc(Cl)cc1Cl)c1ccc2nc[nH]c2c1,/,/,-10.9,-14.8,-5.6,/,-2.1
O=C(Nc1ccc2ccccc2c1[N+](=O)[O-])c1ccccc1,-98.0,/,7.4,9.8,5.8,3996,2.8
CCC1CCCCN1C(=O)Cn1c(=O)oc2ccccc21 (centres undefined),-19.5,5.7,9.8,7.2,3.8,4021,0.9
COc1ccc(/C=N/NC(=S)NC2CCS(=O)(=O)C2)cc1OC (centres undefined),-19.9,3.1,/,/,/,8851,/
CCOC(=O)N1CCC(NC(=O)Cn2ncc3c4ccccc4n(C)c3c2=O)CC1,-32.5,-2.2,-7.3,6.1,12.5,3198,5.7
O=C1CCCN2N=C(SCC(=O)Nc3ccc(F)cc3F)SC2=N1,-15.9,0.9,-4.8,-5.3,5.6,6149,-3.5
CN(Cc1cccc(F)c1)C(=O)CSc1nnnn1C1CC1,-12.8,/,1.1,-5.9,5.3,4369,9.2
O=C(CN1C(=O)NC2(CCCCC2)C1=O)N1CCN(S(=O)(=O)c2ccccc2)CC1,-21.2,-7.6,3.6,2.5,-3.4,4206,-0.6
CCC1(C)Cc2c(sc3nnn(CC(=O)Nc4ccc(C)cc4)c(=O)c23)CO1 (centres undefined),-9.1,0.5,3.4,0.9,1.8,8265,-0.2

# 11 entries from above, reformatted.
# Sequence of screens – PrP 5UTR inh	BJeLR lethal	Mtb hypoxia inh	Mtb hypoxia inh growth	RN4220 kill	Autofluor counter	ugtP null kill
CC(=O)Nc1ccc(Oc2ncccn2)c(Cl)c1
    6.6	-2.0	/	/	15.6	2989	3.9
Cc1cc(N/N=C/c2ccccc2Br)nc2ccccc12
    -13.4	-14.6	/	/	/	2566	/
Cc1ccc(C(=O)CN(Cc2ccccc2)C2=NCCS2)cc1
    -24.4	1.6	4.4	-5.8	1.6	10093	17.0
O=C(NN=Cc1ccc(Cl)cc1Cl)c1ccc2nc[nH]c2c1
    /	/	-10.9	-14.8	-5.6	/	-2.1
O=C(Nc1ccc2ccccc2c1[N+](=O)[O-])c1ccccc1
    -98.0	/	7.4	9.8	5.8	3996	2.8
CCC1CCCCN1C(=O)Cn1c(=O)oc2ccccc21 (centres undefined)
    -19.5	5.7	9.8	7.2	3.8	4021	0.9
COc1ccc(/C=N/NC(=S)NC2CCS(=O)(=O)C2)cc1OC (centres undefined)
    -19.9	3.1	/	/	/	8851	/
CCOC(=O)N1CCC(NC(=O)Cn2ncc3c4ccccc4n(C)c3c2=O)CC1
    -32.5	-2.2	-7.3	6.1	12.5	3198	5.7
O=C1CCCN2N=C(SCC(=O)Nc3ccc(F)cc3F)SC2=N1
    -15.9	0.9	-4.8	-5.3	5.6	6149	-3.5
CN(Cc1cccc(F)c1)C(=O)CSc1nnnn1C1CC1
    -12.8	/	1.1	-5.9	5.3	4369	9.2
O=C(CN1C(=O)NC2(CCCCC2)C1=O)N1CCN(S(=O)(=O)c2ccccc2)CC1
    -21.2	-7.6	3.6	2.5	-3.4	4206	-0.6

# The listing continues.
SMILES,PrP 5UTR inh,BJeLR lethal,Mtb hypoxia inh,Mtb hypoxia inh growth,RN4220 kill,Autofluor counter,ugtP null kill
COc1cccc(CNC(=O)c2ccc(NS(=O)(=O)c3ccc4[nH]c(=O)[nH]c4c3)cc2)c1,-15.9,/,5.5,4.7,3.3,4770,4.8
Cc1cccc(NS(=O)(=O)c2nnc(NC(=O)c3cccc(C)c3)s2)c1,-37.4,-1.4,3.0,5.7,1.7,5146,7.4
COc1ccc(C(c2nnnn2Cc2ccccc2)N2CCN(C(=O)c3ccco3)CC2)cc1 (centres undefined),-11.0,10.4,/,/,2.2,3035,5.1
CC(=O)OC1COC(OC(C)=O)CO1 (centres undefined),-1.3,/,8.2,9.4,1.9,4184,1.4
COc1cc(/C=C(\NC(C)=O)C(=O)NC(C)(C)CC(C)(C)C)ccc1OC(C)=O,-10.1,5.5,8.3,4.2,6.2,?,1.1
CCOC(=O)C1=C(c2ccccc2)NC(=O)NC1c1ccc(O)c(OCC)c1 (centres undefined),-15.0,7.5,5.1,16.3,8.4,4182,4.7
c1ccc(OCc2nn3c(Cn4cnc5ccccc54)nnc3s2)cc1,-15.3,6.0,19.9,7.9,4.2,13610,3.4
CC(=NNc1nc(C(C)(C)C)cs1)c1ccccc1,/,/,6.7,12.9,-2.4,/,3.4
O=C(CSc1ccc2nnc(CCNC(=O)c3ccccc3)n2n1)NC1CCCC1,-8.3,2.4,7.1,4.9,-0.7,6354,1.1
CCOC(=O)C1=C(COC(=O)COc2ccccc2C#N)NC(=O)NC1C (centres undefined),-10.0,-2.3,10.0,12.3,5.4,?,10.6
COc1cccc(-c2nc3ccccc3s2)c1,-41.8,2.1,/,/,5.9,2331,14.5
O=C(NCCc1c[nH]c2ccccc12)/C(=C/c1cccnc1)NC(=O)c1cccs1,7.4,/,15.0,-3.0,1.0,3599,8.0
COc1ccccc1CCC(=O)Nc1cc(S(=O)(=O)N2CCOCC2)ccc1N1CCCC1,-18.9,4.0,0.7,7.9,-3.1,5745,1.6
Cc1cc(=O)oc2cc(NC(=O)c3cccc(F)c3)ccc12,-81.8,4.4,10.4,6.6,3.3,3870,-1.8
CCOC(=O)c1c(C)[nH]c(C)c1C(=O)CSc1nnc(-c2ccco2)n1Cc1ccccc1,-25.3,6.0,11.8,23.2,4.2,4299,-5.6
CCCCOC(=O)c1ccc(NC(=S)N2CCN(c3ncc4c(=O)c(C(=O)O)cn(CC)c4n3)CC2)cc1,-13.7,1.4,2.3,-1.7,100.6*,3746,100.5*
Cc1nnc(SCC(=O)Nc2ccccc2)c2ccccc12,-15.2,-4.7,15.6,2.1,2.8,5903,-0.3
COc1ccc(CNC(=O)C2CCCN2S(=O)(=O)c2ccc(S(=O)(=O)N(C)C)cc2)cc1 (centres undefined),3.3,7.0,-11.2,-4.0,4.7,3915,-9.5
Nc1n[nH]c2c1C1(CCCCC1)Cc1ccccc1-2,-4.5,6.4,8.0,7.8,4.7,8917,-5.3
O=C(NCCCl)Nc1cccnc1Cl,-18.9,-4.1,4.2,2.1,4.3,4571,2.5
O=C(CCC1CCCC1)NC(Cc1ccc(O)cc1)C(=O)O (centres undefined),/,/,14.3,12.8,5.5,/,3.2
O=C(NCc1ccccc1)C1=C[C@@H](c2ccccc2)C[C@@H](OCCCCO)O1,-2.4,-5.4,/,/,/,2876,/
COc1ccc(CCN(C)C(=O)C2CCN(Cc3ccccc3)CC2)cc1OC,-24.3,21.7,5.8,4.4,-0.7,4147,-1.6
Cc1cccc(NCN2C(=O)c3ccncc3C2=O)n1,-21.2,1.9,2.1,5.3,0.6,9828,0.9
CC1CCCCC1NC(=O)CON=Cc1ccc(OC(F)F)cc1 (centres undefined),/,/,7.7,6.8,3.2,/,1.4
CS(=O)(=O)N1CCC(C(=O)Nc2ccc(F)cc2F)CC1,-2.7,16.7,12.1,3.8,5.2,4134,-6.7
C=CCOc1ccc(C(=O)Nc2ccccc2C(=O)N2CCCC2)cc1,-7.3,9.6,10.1,3.4,0.2,6450,2.8
O=C(c1cc2ccccc2oc1=O)N1CCOCC1,-62.4,-1.1,16.3,-5.0,1.0,3762,-1.0
COCC(C)n1c(=O)sc2ccccc2c1=O (centres undefined),6.8,-0.6,4.3,-7.4,2.0,3663,13.6
COC(=O)c1ccc(CN2CCC(n3nccc3NC(=O)C3CCCC3)CC2)cc1,-2.8,1.5,-20.0,-1.9,0.0,7375,0.4
